MLL AF4-AF9 inh: inhibitors of AF4 peptide binding to AF9, primary screen, biochemical, AlphaScreen, biotin-AF4 peptide, FLAG-AF9, single point | Protein AF-9 (Homo sapiens), P42568 | inhibition, % at 10 µM | AID 651704, 2012 | 0.47% of 350,000 active;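 active = every replicate reaching a set inhibition limit, whatever the replicate mean, cut at about 25% in these data; inconclusive = mean inhibition reaches that limit but some replicates miss it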;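 also: 0% = plate neutral control median and 100% = total signal loss; the record names both 10 and 1 µM as test concentration; the first replicate is given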
Target sequence (P42568 whole entry, looked up): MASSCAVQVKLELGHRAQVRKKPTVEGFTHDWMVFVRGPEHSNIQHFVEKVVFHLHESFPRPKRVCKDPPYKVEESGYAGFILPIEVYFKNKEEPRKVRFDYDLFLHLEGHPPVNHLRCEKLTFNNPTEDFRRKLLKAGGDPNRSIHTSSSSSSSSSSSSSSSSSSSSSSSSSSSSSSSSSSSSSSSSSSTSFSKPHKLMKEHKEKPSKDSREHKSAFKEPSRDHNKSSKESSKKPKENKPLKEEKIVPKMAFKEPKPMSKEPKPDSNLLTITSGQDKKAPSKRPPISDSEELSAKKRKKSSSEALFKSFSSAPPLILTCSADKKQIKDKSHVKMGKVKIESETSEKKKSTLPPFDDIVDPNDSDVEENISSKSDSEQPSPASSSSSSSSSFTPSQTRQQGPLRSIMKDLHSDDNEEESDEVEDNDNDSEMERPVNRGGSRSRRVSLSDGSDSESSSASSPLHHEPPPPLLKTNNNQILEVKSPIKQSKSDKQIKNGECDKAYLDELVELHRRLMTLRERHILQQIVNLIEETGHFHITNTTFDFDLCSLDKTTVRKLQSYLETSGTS
Ecoli rRNA inh: reduced GFP signal of wild-type E. coli, primary screen, bacterial rRNA inhibitor project, GFP/RFP fluorescence, OD600, single point | 1.6% of 350,000 active | E. coli WT GFP vs humanized-ribosome RFP mutants, 24 h; hits give low values; DMSO median 0, no signal -100 | GFP signal change (wild-type ribosome), % (no concentration beside the values);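 active = significant combined selectivity score with lowered wild-type GFP, culture density cut under 30%, mutant RFP and density less affected; inactive = any of these conditions unmet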; also: one replicate is shown; some compounds called inactive have numbers as strong as hits
Bfl-1 A1 inh: caspase 3/7 activation in MEF A1-2A-BIM cells, primary screen, A1 inhibitor project, cell-based, luminescence, HTS. Caspase-Glo 3/7 luminescence, 3 h; percent of clofoctol response, vehicle zero. caspase activation, % (concentration not given with the values). 0.066% of 330,000 active. AID 2462, 2010;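 active = over half of replicate activation scores above 10%, or exactly half above 10 with the replicate mean above 10; inconclusive = replicate mean below 10 yet half the replicates above 10; inactive = over half of replicates below 10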;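 also: wells of about 30 µL received 50 nL stock; many hits fall short of the cut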
Beta cell apopt: inhibitors of cytokine-induced beta cell apoptosis, primary screen, luminescence; AID 435005, 2010; INS-1E cytokine-induced death, ATP luminescence, 48 h; percent of positive-control rescue, neutral wells zero; 0.8% of 300,000 active; protection from apoptosis, % (concentration not given with the values);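 active = all replicates at 75% or more, or half of them and the mean; inconclusive = half reach 75% but not the mean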;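 also: 0% = cytokine-treated negative control wells and 100% = positive control rescue; higher means more ATP so stronger rescue from cytokine killing; wells of about 40 µL received 100 nL stock; the first replicate is given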
E coli growth: E. coli growth inhibition, primary screen, OD600; Escherichia coli growth, 23 h; hits give low values; OD600 absorbance (no concentration beside the values); 0.21% of 330,000 active;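 active = OD600 absorbance below the run mean of sample wells minus 3.6 SD, in any replicate, cut at about 0.56 in these data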;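 also: stock transfer was 300 nL into about 60 µL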
UCH37 inh: inhibitors of human UCH37 deubiquitinase, primary screen, biochemical, Ub-AMC cleavage, fluorescence; Ubiquitin carboxyl-terminal hydrolase isozyme L5 (Homo sapiens), Q9Y5K5; purified proteasome/UCH37; inhibition, % (no concentration beside the values); 0.33% of 330,000 active;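 active = mean of two replicates above 20%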;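 also: 0% = compound-free wells with enzyme and 100% = wells lacking proteasome; stock transfer was 100 nL into about 20 µL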
Target sequence (Q9Y5K5 whole entry, looked up): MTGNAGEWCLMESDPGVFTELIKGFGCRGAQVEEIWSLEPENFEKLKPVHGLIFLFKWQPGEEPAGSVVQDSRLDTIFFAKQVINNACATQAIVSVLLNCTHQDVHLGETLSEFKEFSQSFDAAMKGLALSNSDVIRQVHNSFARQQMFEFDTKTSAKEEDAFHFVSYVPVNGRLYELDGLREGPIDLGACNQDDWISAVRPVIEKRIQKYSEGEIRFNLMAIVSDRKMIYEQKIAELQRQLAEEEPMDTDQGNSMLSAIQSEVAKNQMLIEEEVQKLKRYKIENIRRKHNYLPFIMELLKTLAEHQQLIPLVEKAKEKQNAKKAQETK
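Signal – fluorescence, ex 355 nm, em 460 nm · System – Proteasome-bound UCH37 · Input – 0.15 nM proteasome as dispensed · Timing – 30 min preincubation with enzyme, 25 min cleavage at room temperature · Read-out basis – percent inhibition of cleavage signal versus uninhibited and no-proteasome wells · Medium – Tris-HCl pH 7.4 with ATP-MgCl2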
FGF22 binding: binders of human FGF22 protein, primary screen, FGF22 synaptogenesis inhibitor project, biophysical, thermal shift, single point; Fibroblast growth factor 22 (Homo sapiens), Q9HCT0; calls only at 9.99 µM; recombinant FGF22 thermal shift, SYPRO orange fluorescence; percent of sucrose octasulfate shift, DMSO zero; 1.5% of 340,000 active;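 active = melting point raised past a set limit in the mean and every replicate; inconclusive = no clear call; three in four hits are not shown here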
Target sequence (Q9HCT0 whole entry, looked up): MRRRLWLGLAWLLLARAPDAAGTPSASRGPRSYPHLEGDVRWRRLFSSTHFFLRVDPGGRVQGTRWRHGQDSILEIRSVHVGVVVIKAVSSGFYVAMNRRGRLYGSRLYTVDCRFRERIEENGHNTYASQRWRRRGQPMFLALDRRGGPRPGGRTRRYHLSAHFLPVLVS
T cruzi repl: inhibitors of intracellular T. cruzi growth, primary screen, luminescence, NIH3T3 host cells; T. cruzi beta-gal in NIH3T3, 90 h; inhibition, % (no concentration beside the values); 1.4% of 300,000 active; AID 1885, 2009;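 active = mean inhibition across valid replicates above about 55%, limit read from the data; inconclusive = mean below that limit but half or more replicates reach it; inactive = mean below it, under half of replicates reach it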;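 also: signal also drops with host cell toxicity which is not excluded here; 0% = plate median of DMSO wells and 100% = zero luminescence signal; higher percent means less beta-gal luminescence so fewer parasites; stock transfer was 50 nL into about 50 µL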
Ecoli rRNA inh OD600: second read-out of Ecoli rRNA inh, no call of its own (marks repeat the call); OD600 change, %; measured here: OD600 growth;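 optical density of the mix in the first replicate; 0 = DMSO median and -100 = no signal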
Ecoli rRNA inh RFP: recorded beside Ecoli rRNA inh, whose call it bears; RFP signal change, %; measured here: RFP humanized mutant strains;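 first replicate; 0 = DMSO median and -100 = no signal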
* hit, by the source's call; i = inactive; ? = inconclusive; · = not tested or not shown. Some of the compounds tested (hit frequency here may not be typical).

SMILES	MLL AF4-AF9 inh	Ecoli rRNA inh	Ecoli rRNA inh OD600	Ecoli rRNA inh RFP	Bfl-1 A1 inh	Beta cell apopt	E coli growth	UCH37 inh	FGF22 binding	T cruzi repl
COc1ccc(NC(=O)Cn2c(=O)sc3ccccc32)cc1	·	·	·	·	-0.8	1	0.78	3.3	·	-13
COc1ccc(C(=O)NCCSc2ccccc2)cc1OC	-1.4	-14	-9	-3.2	0.5	-5	0.67	-1.4	·	1
Cc1cc(/C=C2/NC(=O)NC2=O)c(C)n1-c1ccncc1	4.3	-28*	0.6*	0.0*	-0.3	-11	0.69	5.2	i	0
CC(C)OC(=O)Nc1ccc(-c2ccc(NC(=O)OC(C)C)cc2Cl)c(Cl)c1	-3.0	-5	0	-7.1	-0.1	14	0.69	5.3	i	15
CCCN(CCO)CCCc1ccccc1	·	·	·	·	0.8	-5	0.71	1.2	·	-9
O=C(CSc1ccc2nnc(-c3ccccn3)n2n1)Nc1ccc2c(c1)OCCO2	1.0	5	-7	-3.7	0.5	0	0.7	1.5	i	1
COCCCNC(=O)/C=C/c1ccc(Cl)cc1Cl	·	·	·	·	0.1	·	0.7	3.4	·	1
COCCn1c(C)cc(C(=O)CSc2nc3ccccc3o2)c1C	·	·	·	·	0.2	-4	0.69	0.3	·	10
CCN1C[C@@H]2[C@@H]3C(=O)N(C)C(=O)[C@@H]3[C@](CC)(C(=O)OC)N2C1=NCc1ccccc1	-0.7	29	30	10	·	·	0.71	1.6	i	·
CCOC(=O)C1CCCN(C(=O)c2cc(COc3ccc(C)nc3)on2)C1 (stereo not given)	-1.6	-1	-2	0.6	0.0	-6	0.69	1.2	i	0
COc1ccc(-n2nc(C(=O)NCC(=O)N3CCC(C(N)=O)CC3)c3ccccc3c2=O)cc1	0.1	6	7	0.1	0.8	-4	0.68	-1.6	i	-15
CN=C1SC(CC(=O)Nc2ccccc2F)C(=O)N1C (stereo not given)	-0.1	12	19	-1.3	-0.3	-8	0.72	4.1	i	-21
CC(C)CNc1nc(NC(C)(C)C)nc(Oc2ccc(=O)[nH]n2)n1	-0.7	-4	-3	2.4	?	-2	0.66	0.6	i	12
COc1cccc(NC(=O)CN2C(=O)CSc3ccc(S(=O)(=O)N4CCCCC4)cc32)c1	8.2	-1	-22	-1.3	1.3	-5	0.73	-1.1	i	1
CC(C)Cc1oc(C(=O)O)cc1CN	-1.5	-5	5	2.3	0.7	-9	0.7	4.5	i	-12
CCCC1=NN(C(=O)Cc2ccc([N+](=O)[O-])cc2)C(O)(C(F)(F)F)C1 (stereo not given)	-0.9	-1	8	2.1	0.6	·	0.66	-0.8	·	-4
COc1ccc(Nc2ccc(Cl)nn2)cc1	43*	6	-2	-3.2	-1.0	-5	0.65	-0.1	i	-14
CCC(=O)Nc1cccc(SC)c1	·	·	·	·	0.7	-3	0.66	2.7	·	-24
CSc1ccccc1NC(=O)c1cc(-c2ccco2)on1	-1.1	4	2	1.1	-0.1	-7	0.7	-11	i	4
Cc1cc(SCC(=O)N2CCN(C(=O)c3ccco3)CC2)c(C)cc1Br	0.9	-60	-77	-21	1.6	-4	0.7	3.2	i	·
COc1ccc(CCNC(=O)c2cc(=O)c3cc(C)ccc3o2)cc1OC	0.2	-24	-29	6.6	-0.9	8	0.67	5.5	i	-17
Cc1cccc(-c2nc(C)cc(=O)[nH]2)c1	-15	6	-1	-1.2	0.5	1	0.67	2.5	i	·
O=C(CSc1nncn1-c1ccccc1)Nc1cccc(S(=O)(=O)N2CCCCC2)c1	-5.3	7	7	4.0	-0.3	0	0.69	3.0	i	-6
CC(C)(C)C1COc2ccccc2N1C(=O)c1ccccc1Cl (stereo not given)	-0.7	-8	-12	1.8	0.0	2	0.67	3.2	i	18
O=C(O)c1cc([N+](=O)[O-])ccc1NCc1ccccn1	-0.5	-4	1	4.4	-2.2	-6	0.66	6.3	i	·
O=C(CCSc1ccccc1)NNC(=O)c1ccccc1F	-3.0	9	9	-0.7	-0.7	0	0.68	3.7	·	-9
CN1CC(=O)N(CC(=O)N2CCC(Cc3ccccc3)CC2)C1=O	-5.4	1	-2	2.0	-0.1	-8	0.71	1.4	i	-1
COc1ccc(-c2nn(-c3ccccc3)cc2CO)cc1	·	·	·	·	-0.6	3	0.74	1.0	·	-1
COC(=O)C(C)(C(=O)OC)c1ccccc1[N+](=O)[O-]	·	·	·	·	0.9	2	0.74	0.4	·	4
CC(C)(C)OC(=O)C[C@H]1C/C=C\C[C@@H](CC(=O)N[C@H](CO)Cc2ccccc2)C(=O)NCCOC1=O	-2.8	-3	7	-0.5	-0.3	-2	·	0.1	i	·
Cc1c(Cl)c([N+](=O)[O-])nn1CCCC(=O)Nc1sc2c(c1C(N)=O)CCC(C)C2 (stereo not given)	·	·	·	·	0.2	-8	0.66	4.9	·	20
CCOC(=O)Cc1cn(C(=O)OC(C)(C)C)c2ccccc12	-2.6	4	1	-3.4	-0.2	1	0.65	4.7	i	·
CC(C)C(=O)Nc1cc2c3c(c1)CCN3C(=O)CC2	-1.8	1	10	-0.7	-0.2	2	0.75	1.1	i	-11
O=C(Cc1cccs1)Nc1cccc(-c2nnc(-c3ccco3)o2)c1	-4.3	-21	-21	1.0	-1.4	·	0.72	-0.3	i	24
Cc1ccc(C(C)NC(=O)c2c(C)noc2C)cc1C (stereo not given)	·	·	·	·	-0.2	8	0.72	2.7	·	2
CC(=O)Oc1ccc(N2C(=O)C3C(C2=O)C(C(=O)c2ccc(Cl)cc2)N2CCCC32)cc1 (stereo not given)	3.7	6	8	5.7	1.2	-12	0.68	2.5	i	-19
COc1ccc(C(=O)Nn2c(C)ccc2C)cc1OC	·	·	·	·	-0.8	-3	0.71	-3.2	·	-4
CCn1c(Cc2ccccc2)nnc1SCC(=O)c1cccc([N+](=O)[O-])c1	·	·	·	·	0.7	-2	0.66	0.3	·	14
O=C(CSc1nnc(NC(=O)c2ccccc2)s1)NCc1ccco1	0.3	12	20	1.5	-4.4	3	0.74	-6.1	i	-4
CCOc1ccc(N(CC(=O)NCc2ccccc2)S(=O)(=O)c2c(C)noc2C)cc1	-1.9	5	6	11	0.2	4	0.7	3.6	i	2
COc1ccc(-c2noc(CCC(=O)Nc3cccnc3)n2)cc1OC	·	·	·	·	-0.4	1	0.75	-0.7	·	0
COCCn1cnc2c1c(=O)n(CC(=O)NCC(F)(F)F)c(=O)n2Cc1ccccc1	-2.3	10	7	-3.1	1.0	-9	0.68	2.1	i	-6
CN(C(=O)c1cccc(NC(=O)C2CCN(C(=O)OC(C)(C)C)CC2)c1)C1CCCCC1	2.0	2	5	10	0.1	4	0.66	1.4	i	·
CCCc1c(C)c2ccccc2[nH]c1=O	·	·	·	·	1.7	0	0.69	1.0	·	3
Nn1c(C2CCC2)nc2cc(Cl)ccc2c1=O	1.3	8	9	1.2	0.6	-4	0.71	2.6	i	5
CCC(C)NC(=O)CNC(=O)c1nn(-c2ccc(OC)c(Cl)c2)c(=O)c2ccccc12 (stereo not given)	-0.7	5	3	0.0	-0.6	-4	0.61	-6.2	i	13
CC(C)NC(=O)c1sc2nc(-c3cccs3)cc(-c3cccs3)c2c1N	·	·	·	·	-1.1	9	0.69	-7.9	·	7
COc1ccc2c(c1)CCCC21NC(=O)NC1=O (stereo not given)	·	·	·	·	1.1	2	0.76	3.1	·	-14
O=C1Nc2ccccc2C(O)(C(=O)NCc2ccco2)N1c1ccc(Cl)c(Cl)c1 (stereo not given)	·	·	·	·	0.0	0	0.76	2.6	·	8
CC(C)c1ccc(CNC(=O)C2CCCN2S(=O)(=O)c2ccccc2)cc1 (stereo not given)	0.6	-5	-14	-1.7	0.7	-2	0.63	3.2	i	-13
N#CN=C(c1ccccc1)c1ccccc1	2.6	9	10	-0.6	0.2	-2	0.64	2.2	i	6
COc1ccc(-n2cc(C(=O)O)c(=O)cc2C)cc1	2.0	-1	1	1.4	0.0	-1	0.71	3.7	i	-9
CCOc1ccc(CN2C(=O)c3ccccc3C2C(=O)NCc2cccnc2)cc1 (stereo not given)	·	·	·	·	0.0	1	0.69	4.5	·	13
C/C(=N/O)c1ccccn1	-4.1	·	·	·	-0.8	0	·	·	i	-10
CCOC(=O)c1[nH]cnc1C(=O)Nc1ccccc1C	-1.6	6	8	-0.8	0.9	-2	0.68	3.9	i	-2
COc1ccc(-n2cc(CN(C)C3CCOCC3)c(-c3cccc(F)c3)n2)cc1	4.0	-13	-22	19	0.5	-2	0.73	0.5	i	9
Cc1cccc(OCCOC(=O)CN2C(=O)NC3(CCCC3)C2=O)c1	-0.4	11	11	0.7	0.3	-2	0.69	3.1	i	-26
COC(=O)C1=C(CS(=O)(=O)c2ccc(Cl)cc2)NC(=O)NC1c1ccc(O)cc1 (stereo not given)	0.7	-3	1	0.5	0.0	-7	0.64	1.4	i	9
CN(C)CCCNC(=O)C[C@H]1C[C@H](C(=O)N2CCCCC2)[C@@]2(C)c3[nH]c4ccc(Cl)cc4c3CCN2C1=O	2.6	-1	-4	-0.9	·	·	0.69	0.6	i	·
CC(CCc1ccccc1)NC(=O)/C=C/c1ccc(F)cc1 (stereo not given)	·	·	·	·	-0.7	0	0.69	1.0	·	7

Next entries.
SMILES	MLL AF4-AF9 inh	Ecoli rRNA inh	Ecoli rRNA inh OD600	Ecoli rRNA inh RFP	Bfl-1 A1 inh	Beta cell apopt	E coli growth	UCH37 inh	FGF22 binding	T cruzi repl
COCN(C#N)c1nc(N(C)C)nc(N(C)C)n1	-1.4	1	-10	-7.3	0.8	-1	0.68	3.3	i	-2
Cc1cc(C(=O)OCC(=O)N2c3ccccc3CC2C)c(C)o1 (stereo not given)	·	·	·	·	-0.6	0	0.72	-7.0	·	-2
Cc1c(-c2ccccc2)nc(-c2ccccc2)[nH]c1=O	·	·	·	·	0.3	9	0.7	0.6	·	-14
COC(=O)CNc1nc(Cl)nc(Nc2ccc(C)cc2)n1	-0.3	11	11	0.3	0.0	-4	0.7	1.7	i	-4
CCOc1cccc2cc(-c3csc(NC(=O)CCC(=O)NCCCN4CCC(C)CC4)n3)c(=O)oc12	·	·	·	·	-5.0	-4	0.73	-18	·	-8
CC(C)(C)C(=O)COC(=O)c1ccc2c(c1)C(=O)N(Cc1ccco1)C2=O	10	4	0	-1.4	-1.0	-1	0.66	3.0	i	-13

Assay outcomes from PubChem BioAssay.
